# Bioassay records (PubChem BioAssay)
# T cruzi repl: inhibitors of intracellular T. cruzi growth, primary screen, luminescence, NIH3T3 host cells | T. cruzi beta-gal in NIH3T3, 90 h | inhibition, % (test concentration not listed) | actives 1.4% (n = 300,000) | AID 1885, 2009;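 active = mean inhibition across valid replicates above about 55%, limit read from the data; inconclusive = mean below that limit but half or more replicates reach it; inactive = mean below it, under half of replicates reach it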;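 also: signal also drops with host cell toxicity which is not excluded here; 0% = plate median of DMSO wells and 100% = zero luminescence signal; higher percent means less beta-gal luminescence so fewer parasites; stock transfer was 50 nL into about 50 µL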
# Beta cell apopt: inhibitors of cytokine-induced beta cell apoptosis, primary screen, luminescence. INS-1E cytokine-induced death, ATP luminescence, 48 h; percent of positive-control rescue, neutral wells zero. actives 0.8% (n = 300,000). protection from apoptosis, % (test concentration not listed). AID 435005, 2010;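 active = all replicates at 75% or more, or half of them and the mean; inconclusive = half reach 75% but not the mean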;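 also: 0% = cytokine-treated negative control wells and 100% = positive control rescue; higher means more ATP so stronger rescue from cytokine killing; wells of about 40 µL received 100 nL stock; the first replicate is given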
# LANA-H2B inh: blockers of LANA interaction with H2A/H2B – biochemical, FP readout, HTS, primary screen. actives 0.6% (n = 320,000). inhibition, % (test concentration not listed). cell-free LANA-H2A/H2B peptide, fluorescence polarization; in the data active = inhibition mostly above about 10%, no sharp cut-off; inactive = mostly below about 6.7%;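 also: stock transfer was 7.5 nL into about 10 µL; 0% = median of vehicle wells and 100% = median of positive control wells; one replicate is shown; the record names a cut of 25% in any replicate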
# UCH37 inh: inhibitors of human UCH37 deubiquitinase, primary screen, biochemical, Ub-AMC cleavage, fluorescence. AID 588478, 2011. actives 0.33% (n = 330,000). inhibition, % (test concentration not listed). Ubiquitin carboxyl-terminal hydrolase isozyme L5 (Homo sapiens), Q9Y5K5. purified proteasome/UCH37;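 active = mean of two replicates above 20%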;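 also: 0% = compound-free wells with enzyme and 100% = wells lacking proteasome; stock transfer was 100 nL into about 20 µL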
# Target sequence (Q9Y5K5 whole entry, looked up): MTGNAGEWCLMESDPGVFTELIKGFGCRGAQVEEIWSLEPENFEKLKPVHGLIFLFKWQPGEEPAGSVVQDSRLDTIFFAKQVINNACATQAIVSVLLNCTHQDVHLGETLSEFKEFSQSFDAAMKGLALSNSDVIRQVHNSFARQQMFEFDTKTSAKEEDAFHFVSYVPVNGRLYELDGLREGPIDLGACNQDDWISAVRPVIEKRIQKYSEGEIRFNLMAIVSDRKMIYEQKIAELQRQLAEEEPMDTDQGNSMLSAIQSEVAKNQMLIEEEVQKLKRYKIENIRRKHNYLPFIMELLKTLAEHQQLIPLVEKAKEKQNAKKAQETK
#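 Reagent: Ub-AMC substrate; assay system: Proteasome-associated human UCH37 deubiquitinase; controls: no-proteasome and no-compound wells; read-out: % inhibition of Ub-AMC cleavage fluorescence; timing: 30 min preincubation with enzyme, 25 min cleavage at room temperature; signal: AMC fluorescence from Ub-AMC cleavage, excitation 355 nm, emission 460 nm; buffer or medium: Tris-HCl pH 7.4 plus ovalbumin, ATP-MgCl2, DTT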
# RanGTP-Impb inh: inhibitors of RanGTP-importin-beta interaction, primary screen, biochemical, FRET, CFP-Ran, YFP-importin-beta, homogeneous; AID 2216, 2009; cell-free CFP-Ran/YFP-importin-beta FRET ratio; inhibition, % (concentration not given with the values); actives 1.1% (n = 300,000); Ran GTPase (GTP-bound) - importin-beta complex;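 active = most replicates above 15%; inconclusive = exactly half above 15%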;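 also: 0% = DMSO wells and 100% = Ran loaded with GDP instead of GTP; wells of about 40 µL received 100 nL stock; the first replicate is given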
# B2AR ag: beta2AR agonists driving receptor internalization, primary screen, cell-based, FAP fluorogen, flow cytometry; Beta-2 adrenergic receptor (Homo sapiens), P07550; Am2.2-beta2AR cells; reference of the scale not given here; response, % (test concentration not listed); actives 0.43% (n = 340,000); AID 504454, 2011;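 active = response above a set limit, near 3 SD of response in nonfluorescent compounds, cut at about 42% in these data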;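 also: stock transfer was 100 nL into about 11 µL; a reference agonist was the positive control; negative values mostly stem from fluorescent compounds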
# Target sequence (P07550 whole entry, looked up): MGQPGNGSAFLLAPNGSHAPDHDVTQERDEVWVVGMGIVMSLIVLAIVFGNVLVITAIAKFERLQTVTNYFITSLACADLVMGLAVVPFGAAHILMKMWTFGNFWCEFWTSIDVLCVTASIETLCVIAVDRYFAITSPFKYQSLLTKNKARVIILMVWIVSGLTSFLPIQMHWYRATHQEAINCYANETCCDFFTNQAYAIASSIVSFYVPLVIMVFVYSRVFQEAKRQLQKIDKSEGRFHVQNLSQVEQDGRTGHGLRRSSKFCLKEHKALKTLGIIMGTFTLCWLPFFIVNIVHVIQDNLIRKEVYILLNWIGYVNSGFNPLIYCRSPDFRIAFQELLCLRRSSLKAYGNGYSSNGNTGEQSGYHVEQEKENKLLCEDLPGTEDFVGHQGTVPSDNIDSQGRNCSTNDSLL
# A1 inh: caspase 3/7 activation in MEF A1-2A-BIM cells, primary screen, A1 inhibitor project, cell-based, luminescence, HTS | Caspase-Glo 3/7 luminescence, 3 h; percent of clofoctol response, vehicle zero | caspase activation, % (concentration not given with the values) | actives 0.066% (n = 330,000) | AID 2462, 2010;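 active = over half of replicate activation scores above 10%, or exactly half above 10 with the replicate mean above 10; inconclusive = replicate mean below 10 yet half the replicates above 10; inactive = over half of replicates below 10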;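 also: wells of about 30 µL received 50 nL stock; many hits fall short of the cut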
# Calb FLC: C. albicans growth inhibition with fluconazole, primary screen, CaCi-2 strain, Alamar Blue fluorescence. C. albicans CaCi-2 (fluconazole-resistant clinical isolate) + fluconazole, 48 h. growth inhibition, % (test concentration not listed). actives 0.57% (n = 300,000);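 active = most replicates above 75%; inconclusive = exactly half above 75%; inactive = most below 75%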;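 also: all wells also contain fluconazole at 8 µg/ml as a sub-toxic cotreatment; 0% = median of DMSO wells and 100% = median of geldanamycin control wells; wells of about 8 µL received 7.5 nL stock; the first replicate is given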
# Active calls of the source: *; u = inconclusive; x = not tested or not shown.
SMILES,T cruzi repl,Beta cell apopt,LANA-H2B inh,UCH37 inh,RanGTP-Impb inh,B2AR ag,A1 inh,Calb FLC
CCOC(=O)C1CCCN(C(=S)Nc2ccc(S(=O)(=O)N3CCOCC3)cc2)C1 (stereo not given),x,-4,0.3,2.5,x,10,0.4,x
CC(=O)Oc1ccc(C(=O)Nc2ccc(S(=O)(=O)NCC3CCCO3)cc2)cc1 (stereo not given),7,-1,-6.5,-5.3,-1.3,9,-0.4,-5
O=C(NCCc1ccccc1)C1CCCN1C(=O)Nc1ccc(Cl)cc1 (stereo not given),-1,-4,1.0,0.3,9.4,-8,-0.2,-2
Cc1ccc(C(=O)NC(=C(Cl)Cl)S(=O)(=O)c2ccc(Cl)cc2)cc1,-17,-7,2.0,3.4,-0.7,11,-0.4,-11
CN(C)S(=O)(=O)c1ccc(Cl)c(NC(=O)CSc2nc3c(cc2C#N)C(=O)CC(C)(C)C3)c1,-1,-2,1.3,-12,1.9,-8,-0.6,6
CCCc1cc2c(=O)c(-c3ccc4c(c3)OCCO4)coc2cc1OS(C)(=O)=O,46,13,-4.0,3.7,0.6,4,0.2,-4
COC(=O)c1nc2ccccc2s1,-3,-6,-5.1,4.2,-2.5,19,-2.5,-7
Cc1csc(NC(=O)CN2C(=O)COc3ccc(Cl)cc32)n1,3,x,-0.6,2.5,2.1,1,-0.2,-7
COc1ccc(-n2c(SCC(=O)C(C)(C)C)nc3c(sc(=S)n3-c3ccccc3)c2=O)c(OC)c1,60*,13,0.8,7.7,2.2,1,0.3,16
Cn1cnnc1SC1CCCCC1NS(=O)(=O)c1ccccc1 (stereo not given),-2,x,5.4,3.9,-3.4,-1,0.2,-6
CCOC(=O)c1cc(C#N)c(SCC(=O)OC)[nH]c1=O,-10,-6,-1.9,-42,3.3,-4,0.1,-25
CC(=C/c1ccc(C(C)C)cc1)/C=N/NC(=O)CSc1ccccn1,20,28,-0.8,x,4.0,-13,0.2,18
COc1ccccc1/C=C/C(=O)NCC(=O)N=Nc1c(O)[nH]c2ccccc12,8,0,-1.0,9.2,7.3,-7,-0.2,17
CC(C)Oc1ccc(-c2cc(C(=O)NCCN3CCOCC3)c3ccccc3n2)cc1,4,2,-1.2,-34,-1.5,-5,0.0,-1
COc1ccc(OCC(=O)Nc2cccc(S(=O)(=O)N(C)c3ccccc3)c2)c([N+](=O)[O-])c1,x,-3,-2.3,-2.9,x,3,1.3,x
Cn1c(=O)c2c(nc(CN3CCN(c4ccccc4)CC3)n2CCc2ccccc2)n(C)c1=O,18,-1,-2.9,4.7,1.2,-9,1.1,-15
O=C(CCNC(=O)c1ccccc1Cl)Nc1cc(S(=O)(=O)N2CCOCC2)ccc1N1CCCC1,3,-1,0.1,1.1,-3.8,-5,-0.8,3
CCOc1cc(C(=O)Nc2cc(C)on2)cc(OCC)c1OCC,-5,8,-3.2,2.5,0.5,-3,1.7,4
Cc1ccc(NC(=O)CN2C(=O)S/C(=C\c3ccccn3)C2=O)cc1C,x,0,2.1,-1.2,x,-1,0.3,-1
Cc1ccccc1NC(=O)CSc1n[nH]c(-c2ccco2)n1,-2,-8,16*,-0.8,2.3,-2,1.3,-15
CCOC(=O)C[N+](C)(C)CCOC1CC2CCC1(C)C2(C)C (stereo not given),18,6,-3.2,1.5,-3.7,2,-0.7,-39
CC1CC(C)CN(C(=O)C(Cc2ccccc2)NC(=O)c2ccccc2)C1 (stereo not given),-2,x,0.2,1.5,-2.3,4,0.5,2
O=C(NC1CC1)C1CCN(c2ncccn2)CC1,-2,-1,-1.2,-4.0,-0.4,4,-0.3,0
CN(Cc1ccco1)C(=O)C1CCC(=O)N1Cc1ccc(F)cc1 (stereo not given),-9,2,-2.0,-1.1,u,4,0.0,1
COc1cccc(-c2nnc(NC(=O)c3ccc(S(=O)(=O)N4CC(C)OC(C)C4)cc3)o2)c1 (stereo not given),20,x,-4.8,-30,-0.7,8,-0.3,6

# (cont.)
SMILES,T cruzi repl,Beta cell apopt,LANA-H2B inh,UCH37 inh,RanGTP-Impb inh,B2AR ag,A1 inh,Calb FLC
O=C(O)c1ccccc1NCc1ccsc1,-7,0,2.9,-108,-0.7,-3,-1.2,3
CCOC(=O)C1(Cc2cccc(F)c2)CCN(C2CCOCC2)CC1,-20,-12,2.0,5.4,u,1,0.7,-14
O=C(COC(=O)c1ccccc1SCC(=O)N1CCCC1)Nc1ccc(OC(F)F)cc1,-8,x,-0.6,-6.7,2.7,3,-0.3,-8
CCN1CCN(CCC(=O)Nc2ccccc2)CC1,-7,-7,-3.4,0.3,-2.7,1,0.3,-7
CCOC(=O)c1ccccc1NC(=O)C1CCCO1 (stereo not given),-4,-7,1.7,-1.6,-4.2,-4,0.3,8
CCCCC(=O)Nc1ccc(C(=O)Nc2ccc(S(=O)(=O)Nc3ccc(C)cc3)cc2)cc1,-5,-3,2.6,-0.4,2.4,0,-0.1,-2
Cc1ccc(-c2ccc(=O)n(Cc3cc(C)ccc3C)n2)cc1,4,-2,-1.2,1.1,-1.7,3,0.4,-2
CCN(C(=O)c1c(-c2ccccc2Cl)noc1C)C1CCCCC1,10,-5,-0.7,6.7,-3.8,6,-0.1,16
CS(=O)(=O)N(CCc1ccccc1)CC(=O)N1CCN(c2ccc(F)cc2)CC1,-4,2,0.6,-0.2,1.4,-2,0.5,7
Clc1ccc(-c2cn3nc4c(nc3n2)CCCC4)cc1,5,-7,1.4,-135,70*,3,-0.8,-8
CCCCSc1nc(C)c(CC(=O)OC)c(=O)[nH]1,x,-6,2.6,0.0,x,2,-1.4,x
COc1ccccc1NS(=O)(=O)c1cccc(C(=O)N(C)Cc2cccs2)c1,4,-4,4.0,-0.2,2.7,-1,0.0,-5
CS(=O)(=O)c1cnc2c(-c3ccc(F)cc3)cnn2c1N,-21,-3,6.3,-59,3.6,-7,0.1,-5
Cc1ccc(S(=O)(=O)N(C)C)cc1NC(=O)COC(=O)/C(=C/c1ccc(F)cc1)c1cccs1,1,3,3.3,1.1,-1.9,4,-0.3,-3
COc1ccc(CC(=O)NNC2=Nc3cccc4cccc2c34)cc1,-2,-5,-2.7,x,7.1,12,0.0,1
COc1cccc(C2CC(c3ccccc3Cl)n3ncnc3N2)c1 (stereo not given),2,0,3.0,1.4,-0.3,0,-0.1,-10
Cc1[nH]n(-c2ccccc2)c(=O)c1/C=N/c1nn[nH]n1,-5,x,-9.3,x,6.7,-3,-0.9,1
O=C(Nc1cccc(OCC(=O)N2CCOCC2)c1)c1ccc(C(F)(F)F)cc1,-1,2,1.0,3.4,1.4,-2,0.8,-3
CN1CCN(c2nc3nonc3nc2N2CCN(C)CC2)CC1,4,-1,1.9,4.0,-8.3,4,-0.3,-1
Cc1ccc(S(=O)(=O)N2CCOCC2)cc1NC(=O)COC(=O)COc1cccc2c1OC(C)(C)C2,-12,-5,0.1,2.6,u,1,0.6,6
CN(CC(=O)Nc1ccccc1Cl)C(=O)COC(=O)c1ccc(Cl)nc1,-5,-5,-2.9,2.6,-1.8,3,0.0,-1
CC(=C\c1ccccc1)/C=C1/SC(=S)N(C(C(=O)O)C(C)C)C1=O (stereo not given),-12,x,x,5.5,-4.6,2,x,41
COc1cc(C2=NOC(C(=O)N3CCN(c4ccc(F)cc4)CC3)C2)cc(OC)c1OC (stereo not given),30,7,5.0,1.1,-2.4,8,0.1,11
CCc1ccccc1N(C(=O)CNC(=O)c1ccco1)C(C(=O)NC1CCCC1)c1cccnc1 (stereo not given),5,1,-0.3,0.6,0.7,2,-0.7,9
Cc1ccc(-c2nnn(CC(=O)N(c3ccc4c(c3)OCCO4)C(C(=O)NCC3CCCO3)c3ccc(F)cc3)n2)o1 (stereo not given),6,1,0.1,4.9,u,-7,-0.5,52

# The list goes on:
SMILES,T cruzi repl,Beta cell apopt,LANA-H2B inh,UCH37 inh,RanGTP-Impb inh,B2AR ag,A1 inh,Calb FLC
COc1ccc(C=C2c3ccccc3C(=O)c3ccccc32)c(OC)c1,9,8,-9.5,x,1.8,33,0.2,7
c1ccc(-c2noc(C3CCCCC3)n2)nc1,-12,2,-1.4,-0.8,-1.9,-10,0.6,-2
CCc1cc(CNC(=O)C2CCC(=O)N(CCc3cccc(F)c3)C2)on1 (stereo not given),-4,x,x,-0.9,-2.2,9,x,4
COCCN1C(=O)C(=O)/C(=C(/O)c2ccc(S(=O)(=O)N3CCOCC3)cc2)C1c1cccc(OC)c1 (stereo not given),-11,-3,-2.2,11,0.1,2,-0.6,16
O=C(O)c1cnn2c(C(F)F)cc(C(F)F)nc12,-1,3,4.0,2.9,-5.0,4,0.4,0
Cc1ccc(S(=O)(=O)C(C#N)c2nc3ccccc3nc2N2CC(C)OC(C)C2)cc1C (stereo not given),2,18,-5.7,2.4,2.7,14,0.4,13
CCCc1cc(=O)oc2cc(OCc3ccc(C(=O)O)cc3)ccc12,29,2,-2.8,-111,3.3,31,0.6,29
COc1ccc(CCNc2cc(N3CCN(C(=O)c4ccccc4OC)CC3)ccc2[N+](=O)[O-])cc1OC,13,85*,8.0,7.5,3.9,22,-0.4,-7
Cc1cc(C)n2nc(C(=O)OCC(=O)Nc3ccc4c(c3)OCCO4)nc2n1,x,-5,-8.7,0.1,x,0,-0.2,x
CCOC(=O)N1CCN(C(=O)C2c3cc(OC)c(OC)cc3C(=O)N3CCc4ccccc4C23)CC1 (stereo not given),-3,-7,-1.8,0.9,-3.1,-3,-0.2,-1
COc1ccc(S(=O)(=O)Nc2ccncc2)c(C)c1C,-9,0,0.4,x,6.5,-4,0.9,-2
CCc1cccc(NC(=O)CCc2nc(-c3cccs3)no2)c1,-1,-1,2.5,3.9,-1.1,-8,1.0,-2
O=C(NCC1CCCO1)c1cccc(S(=O)(=O)N2CCOCC2)c1 (stereo not given),-2,-5,-1.6,1.8,4.4,-2,-0.4,1
COc1cc(NC(=S)NC(=O)c2ccco2)ccc1NC(=O)C(C)C,-14,x,0.4,x,5.0,-4,-0.8,28
Cc1cccc(/C=N/NC(=O)c2cccc(Cl)c2)n1,7,x,-4.8,x,-3.5,3,-1.7,4
CN(C)C(=N)c1n[nH]nc1SCc1ccc(Cl)c(Cl)c1,-25,-4,0.4,2.0,u,0,0.1,-3
COc1cccc(NC(=O)CN(C)CC(=O)NCC(=O)Nc2ccc(F)cc2)c1,x,3,-1.3,-1.8,x,-4,0.2,x
